Bioassay records deposited in PubChem BioAssay by Vanderbilt University.
GIRK2 act = opens human GIRK2 potassium channels; HEK293-GIRK2 thallium flux, Thallos fluorescence; 63,000 tested, 0.05% active; calls only for hits at 25 µM;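 active = among the strongest 0.2% of first-round signals and kept after retests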;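 note: first round at about 10 µM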
Target sequence (P48051 whole entry, looked up): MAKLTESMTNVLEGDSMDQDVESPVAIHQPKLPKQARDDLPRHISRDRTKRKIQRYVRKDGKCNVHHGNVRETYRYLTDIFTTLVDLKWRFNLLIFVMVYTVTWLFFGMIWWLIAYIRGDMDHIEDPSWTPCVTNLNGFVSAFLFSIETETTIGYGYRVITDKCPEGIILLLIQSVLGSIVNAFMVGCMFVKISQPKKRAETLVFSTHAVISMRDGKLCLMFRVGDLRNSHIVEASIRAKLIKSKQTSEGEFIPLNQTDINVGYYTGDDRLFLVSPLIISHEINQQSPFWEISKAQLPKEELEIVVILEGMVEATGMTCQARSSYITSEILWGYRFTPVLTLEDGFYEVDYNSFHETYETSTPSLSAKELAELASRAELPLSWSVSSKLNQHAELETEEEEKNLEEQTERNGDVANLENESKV
Calls only; i = inactive. A portion of the library; the hit share may differ from the screen's.

SMILES | GIRK2 act
Cc1cc2c(=O)n(C)c(SCC(=O)Nc3ccc(O)cc3)nc2s1 | i
O=C(NCc1cccs1)N1CCCC(c2nnc(C(F)(F)F)o2)C1 (configuration not stated) | i
Cn1cccc(C(=O)NCc2ccc(C(O)c3cccs3)s2)c1=O (configuration not stated) | i
CS(=O)(=O)Oc1ccc2c(c1)O/C(=C\c1cccc(Br)c1)C2=O | i
COc1ccccc1N1CCN(CCNC(=O)C2CC(=O)N(c3ccccc3)C2)CC1 (configuration not stated) | i
Cc1ccc(OCCSc2nc3ccccc3n2CC(=O)NC(C)C)cc1 | i
Cc1nc(-n2nc(C3CC3)cc2NC(=O)C2CC2)[nH]c(=O)c1C | i
COc1ccc(NC(=O)Nc2nc(CCC(=O)N3CCC(C)CC3)cs2)cc1 | i
NC(=O)c1ccccc1OCC#CCNC(=O)c1ccsc1 | i
CCNC(=O)N1CCN(CC(C)O)CC1 (configuration not stated) | i
COc1ccc(CNC(=O)c2cc3cc([N+](=O)[O-])cc(OC)c3oc2=O)cc1 | i
Cc1ccc(NC(=O)N(CCc2cccs2)Cc2cccnc2)cc1C | i
Cc1ccc(S(=O)(=O)N2CCCc3cc(NS(=O)(=O)c4cc(C)c(C)cc4C)ccc32)cc1 | i
COc1ccc(NC(=O)c2ccc(S(=O)(=O)N3CCCCC3)cc2)c(OC)c1 | i
CC(O)CN1CCN(C(=O)NCc2ccc(Cl)cc2)CC1 (configuration not stated) | i
CS(=O)(=O)N1CCN(C(=O)CCC2NC(=O)c3ccccc3NC2=O)CC1 (configuration not stated) | i
COc1ccccc1NC(=O)N1CCCC(c2nnc(-c3ccc4c(c3)OCO4)o2)C1 (configuration not stated) | i
Cc1ccccc1NC(=O)C12CCC(C)(C(=O)C1Br)C2(C)C (configuration not stated) | i
Cc1cc(OCC(=O)Nc2ccccc2F)nc(N2CCCCCC2)n1 | i
O=C(Cc1ccc(F)cc1)NCC#CCOc1cccc(C(F)(F)F)c1 | i
COC(=O)c1ccccc1NC(=O)CCc1c(C)[nH]c(=O)n(C)c1=O | i
CCn1c(SCc2ccc(C)cc2)nc2c1c(=O)[nH]c(=O)n2C | i
S=C(c1cccc(Br)c1)N1CCN(C(=S)c2ccccn2)CC1 | i
Cc1ccc(N2CCN(S(=O)(=O)c3ccc(Cl)c(C)c3)CC2)c(C)c1 | i
COc1ccc(CCNC(=O)NCC#CCN(C(C)C)C(C)C)cc1 | i

The final four records of the section before open the next one.
SMILES | GIRK2 act
CCn1c(SCc2ccc(C)cc2)nc2c1c(=O)[nH]c(=O)n2C | i
S=C(c1cccc(Br)c1)N1CCN(C(=S)c2ccccn2)CC1 | i
Cc1ccc(N2CCN(S(=O)(=O)c3ccc(Cl)c(C)c3)CC2)c(C)c1 | i
COc1ccc(CCNC(=O)NCC#CCN(C(C)C)C(C)C)cc1 | i
COc1ccc(-c2cc3c(=O)n(CC(=O)Nc4cc(F)ccc4F)ccn3n2)cc1OC | i
O=C(c1cc(-c2cccs2)[nH]n1)N1CCC(Oc2ncccn2)CC1 | i
COC(=O)c1sccc1S(=O)(=O)Nc1ccc2c(c1)OCC(C)(C)C(=O)N2CCC(C)C | i
C=C1CC23CC(=O)C4C(CO)(CO)CCCC4(C)C2CCC1C3 (configuration not stated) | i
Cc1c(C)n2c3c(=O)n(CCCO)c(=O)n(C)c3nc2n1Cc1ccco1 | i
CCC(=O)Nc1ccc(CN2CCN(c3ccccn3)CC2)cc1 | i
O=C(NC1CCN(c2ccc(-c3ccccc3F)nn2)C1)c1cnccn1 (configuration not stated) | i
COc1ccc(-c2cc(N3CCN(S(=O)(=O)c4ccc(F)c(C(F)(F)F)c4)CC3)ncn2)cc1 | i
O=C(CCCS(=O)(=O)Cc1ccccc1)Nc1cccc(Cl)c1Cl | i
Cc1cc(=O)[nH]c(-n2nc(-c3cccs3)cc2NC(=O)C2CC2)n1 | i
CSc1cccc(NC(=O)CSc2cc(-c3ccccn3)nc(C)n2)c1 | i
Cc1nn(C)cc1S(=O)(=O)NCc1c(F)cccc1F | i
COc1ccc(/C=C2\Oc3cc(OCC(N)=O)ccc3C2=O)cc1OC | i
Cc1c(NC(=O)C2CCN(c3ccc(-n4cccn4)nn3)CC2)c(=O)n(-c2ccccc2)n1C | i
CN(C)C(=O)CSc1nnc2n(CCC(=O)NC3CCCCC3)c(=O)c3ccccc3n12 | i
CN(C)CCCN1C(=O)C(=O)C(=C(O)c2ccncc2)C1c1ccc(Br)cc1 (configuration not stated) | i
Cc1ccc(S(=O)(=O)c2cc3c(=O)n4cccc(C)c4nc3n(CCO)c2=N)cc1C | i
CN(c1ccccc1)S(=O)(=O)c1c(-c2ccccc2)csc1C(N)=O | i
O=C(Nc1nc(CN2CCc3ccccc3C2)cs1)c1ccc(C(F)(F)F)cc1 | i
Cc1ccc(=O)n(C(C)C(=O)N2c3ccccc3CC2C)n1 (configuration not stated) | i
CCCN1CCCC(c2ccc(Nc3nc(Nc4cc(F)ccc4C(N)=O)c4cc[nH]c4n3)c(OC)c2)C1 (configuration not stated) | i
C=CCn1c(=O)c2c(nc3n2CC(C)CN3c2ccccc2OC)n(C)c1=O (configuration not stated) | i
CCOC(=O)Oc1ccc2oc(C)c(C(=O)OCC)c2c1 | i
Cn1nc(C2CCN(CC(=O)NCc3ccco3)CC2)n(-c2ccccc2)c1=O | i
Cc1ccc(Cc2cnc(NC(=O)c3ccc(-n4cnnn4)cc3)s2)cc1 | i

Laid out differently: entries from further up
> Cn1cccc(C(=O)NCc2ccc(C(O)c3cccs3)s2)c1=O (configuration not stated)
  GIRK2 act: i
> CS(=O)(=O)Oc1ccc2c(c1)O/C(=C\c1cccc(Br)c1)C2=O
  GIRK2 act: i

Going on with the list.
SMILES | GIRK2 act
Cc1nnsc1C(=O)Nc1ccc2c(c1)C(=O)N1CCCCC1CCO2 (configuration not stated) | i
COc1ccc(S(=O)(=O)CC(=O)Nc2nnc(-c3csc(C)n3)o2)cc1 | i
O=C(NC1CCCC1)C1CCN(c2ccc(-c3ccncc3)nn2)CC1 | i
Cc1ccc(N2CN(CC(=O)N3CCc4ccccc43)S(=O)(=O)c3cccnc32)cc1 | i
O=c1c2nnn(Cc3ccc(F)cc3)c2ncn1Cc1nc(-c2ccc3c(c2)OCO3)no1 | i
CNC(=O)CSc1nnc(N2CCN(C(C)=O)CC2)s1 | i
COCCOC(=O)C(C#N)c1nc2ccccc2nc1N1CCN(c2ccccc2)CC1 (configuration not stated) | i
Cc1ccc(S(=O)(=O)C2=C(O)C(=O)N(c3ccc(F)cc3)C2c2ccc(F)cc2)cc1 (configuration not stated) | i
CCOC(=O)Cc1n[nH]c(CSc2nc3ccccc3s2)n1 | i
CC(=O)Nc1ccc(SCCCC(=O)Nc2cc(C)on2)nn1 | i
CCCOc1ccc(-c2nc(C#N)c(N3CCN(C(=O)c4ccccc4C)CC3)o2)cc1 | i
Cc1ccc(-c2ncc(C#N)c(=O)n2CC(=O)Nc2ccc(C)cc2Br)cc1 | i
O=C(c1ccc(Oc2ccccc2)cc1)N1CCCSCC1CN1CCCC1 (configuration not stated) | i
O=C(Cn1cccc1)Nc1cc(N2CCOCC2)ncn1 | i
CCn1ncc(CN(C)S(=O)(=O)c2[nH]ncc2C(=O)O)c1C | i
O=C(CCC(=O)c1ccc(Cl)cc1)Nc1nc2c(s1)COCC2 | i
COc1ccc(C(=O)Nc2ccc3c(c2)CCC(=O)N3Cc2ccccc2)cc1OC | i
Cc1c(Cl)cccc1NC(=O)c1cc(-c2ccc(F)cc2)c[nH]1 | i
COc1nn(C)cc1C(=O)Nc1nnc(SCc2ccccc2Cl)s1 | i
O=C(NCCn1cnc(-c2ccccc2)cc1=O)c1cncc(Br)c1 | i
Cc1ccc2nc3sc(Nc4cc(F)ccc4F)nn3c(=O)c2c1 | i
COc1ccccc1NC(=O)C1=C(C)Nc2ncnn2C1c1cccc(F)c1 (configuration not stated) | i
Cc1ccc2c(CN3CCN(c4cccc(Cl)c4)CC3)cc(=O)oc2c1 | i
O=C(NCc1cccs1)Nc1nc2c(F)cccc2s1 | i
O=C(Nc1ccc(Cl)cc1[N+](=O)[O-])C1COc2ccccc2O1 (configuration not stated) | i

Grouped by structure, the entries above with a furan ring, fused or not (3)
SMILES | GIRK2 act
Cc1c(C)n2c3c(=O)n(CCCO)c(=O)n(C)c3nc2n1Cc1ccco1 | i
CCOC(=O)Oc1ccc2oc(C)c(C(=O)OCC)c2c1 | i
Cn1nc(C2CCN(CC(=O)NCc3ccco3)CC2)n(-c2ccccc2)c1=O | i

(more compounds)
SMILES | GIRK2 act
O=C(Cn1cc(S(=O)(=O)N2CCCCC2)ccc1=O)Nc1cc(F)ccc1F | i
COc1cc(Cl)c(S(=O)(=O)NCCc2ccccc2)cc1Cl | i
Cc1ccc(/C=C/S(=O)(=O)N2CC(c3nc4ccc(C)cc4[nH]3)C2)cc1 | i
CC(=O)c1ccc(NC(=O)CSc2nccn2-c2cccc(C(=O)NCc3cccs3)c2)cc1 | i
CC(C)CC(=O)NCC#CCOc1ccc2c(c1)OCO2 | i
N#Cc1cnc2ccccc2c1N1CCC(C(=O)Nc2ccc(F)c(Cl)c2)CC1 | i
CCCCn1c(-c2ccc([N+](=O)[O-])cc2)nc2c(c(=O)c3ccccc3n2C)c1=O | i
O=C(CSc1nnc(N2CCN(C(=O)c3cccs3)CC2)s1)Nc1ccccc1 | i
COc1ccc(NC(=O)Cn2cnc3c(oc4ccccc43)c2=O)cc1Cl | i
Cc1cc(=O)n2c(-c3cccc(NC(=O)c4ccc(C(F)(F)F)cc4)c3)csc2n1 | i
CC1Cc2ccccc2N1C(=O)c1ccc(Cl)cc1 (configuration not stated) | i
O=C(CSc1nnc(N2CCN(C(=O)Cn3cnc4ccccc43)CC2)s1)NCc1ccco1 | i
Cc1ccc(NC(=O)Nc2ccccc2-c2ccc(=O)[nH]n2)cc1C | i
COc1cccc(N2CCN(Cc3nc(-c4ccc(N5CCCC(C)C5)nc4)no3)CC2)c1 (configuration not stated) | i
Cc1csc(C(=O)NC2CC(O)C(CO)C2)c1 (configuration not stated) | i
O=S(=O)(NCC1(c2cccs2)CCOCC1)c1ccc(Cl)s1 | i
O=C(CSc1nnc(CCc2nc3ccccc3[nH]2)o1)Nc1cccnc1 | i
Cc1cc(S(=O)(=O)NCc2ccccn2)c(C)cc1Cl | i
COc1ccc(Cl)cc1NC(=O)c1nnn(-c2ccc(F)cc2)n1 | i
Cc1cccc2sc(NC(=O)C3CCN(S(=O)(=O)c4ccc(Cl)cc4)CC3)nc12 | i
O=c1cc(-c2ccccc2)ncn1CCNS(=O)(=O)c1ccccc1Cl | i
Cc1cc(NC(=O)Cn2cccc(S(=O)(=O)N3CCCC3)c2=O)no1 | i
O=C(NCC1CCN(C(=O)Oc2ccccc2)CC1)c1ccccc1C(F)(F)F | i
COCCn1c(=O)c2c(nc3n2CCN3c2cc(C)ccc2OC)n(C)c1=O | i
CC(C)(C)NC(=O)N1CCN(Cc2nnnn2-c2cccc(F)c2)CC1 | i

The list goes on:
SMILES | GIRK2 act
O=C(c1csc2nc(-c3ccc(F)cc3)cn12)N1CCOCC1 | i
O=C(CCCSc1ccc(Cl)cc1)Nc1nnc(-c2ccc3c(c2)OCCO3)o1 | i
O=C(Nc1ccc(Cl)cc1)c1cc(-c2ccccn2)nc2ccccc12 | i
O=S(=O)(NCC#CCN1CCOCC1)c1cccc2cccnc12 | i
Cc1cc(C)cc(NC(=O)C(=O)NCC2(CO)CC2)c1 | i
COc1ccccc1C1C(=C(O)c2ccncc2)C(=O)C(=O)N1CCCN(C)C (configuration not stated) | i
COc1ccc(Cl)cc1C(=O)NCC1CCN(Cc2ccsc2)CC1 | i
CCOc1cc(S(=O)(=O)NC2CC(C)(C)NC(C)(C)C2)ccc1F | i
COc1ccc(CNC(=O)Nc2cc(N3CCCCC3)ncn2)cc1 | i
COc1cc(OC)cc(-c2noc(CSc3nc4ccsc4c(=O)n3C)n2)c1 | i
Cc1nc(-c2ccccc2Cl)sc1CNC(=O)c1ccsc1 | i
Cn1cc(C(=O)Nc2cccc(NS(C)(=O)=O)c2)nn1 | i
O=C(NCc1cnn2ccccc12)c1cccc(-n2cnnn2)c1 | i
CSc1cccc(NC(=O)CSc2ncnc3c(-c4ccccc4)c[nH]c23)c1 | i
COC(=O)c1ccc(OC)c(Cn2cnc3c(-c4ccc(OC)cc4)csc3c2=O)c1 | i
CSc1ccccc1C(=O)NCC(O)c1ccoc1 (configuration not stated) | i
Cc1ccc(S(=O)(=O)N2CCC(C)CC2)cc1 | i
C=CCOC(=O)C1=C(C)NC(=O)NC1c1ccc(C)cc1 (configuration not stated) | i
O=C(COc1ccc(F)cc1)Nc1cc(OCc2ccccc2)ncn1 | i
FC(F)(F)c1ccc(CN2CC(c3nc(C4CC4)no3)C2)cc1 | i
Cc1nc(-c2cccs2)sc1C(=O)Nc1ccccc1-c1ccc(=O)[nH]n1 | i
CC(C)c1ccc(NC(=O)CN2C(=O)N/C(=C\c3ccccc3)C2=O)cc1 | i
CCOCCn1c(=O)c2c(nc3n(-c4ccc(CC)cc4)c(C)c(C)n23)n(C)c1=O | i
CC1(C)S[C@@H]2[C@H](N=CN3CCCCCC3)C(=O)N2[C@H]1C(=O)O | i
CC(C(=O)Nc1nccs1)n1nc(-c2ccccc2)ccc1=O (configuration not stated) | i
CC(C)(C)CC(=O)N1CCN(CC(F)(F)F)CC1 | i
CN1CC(c2nc3ccccc3n2Cc2ccccc2F)CC1=O (configuration not stated) | i

Among those listed so far, these contain a cyano group:
SMILES | GIRK2 act
COCCOC(=O)C(C#N)c1nc2ccccc2nc1N1CCN(c2ccccc2)CC1 (configuration not stated) | i
CCCOc1ccc(-c2nc(C#N)c(N3CCN(C(=O)c4ccccc4C)CC3)o2)cc1 | i
Cc1ccc(-c2ncc(C#N)c(=O)n2CC(=O)Nc2ccc(C)cc2Br)cc1 | i
N#Cc1cnc2ccccc2c1N1CCC(C(=O)Nc2ccc(F)c(Cl)c2)CC1 | i
